Screening data (PubChem)
VACV mCherry inh: qHTS for Stage-Specific Inhibitors of Vaccinia Orthopoxvirus: mCherry Reporter Primary qHTS; AID 720579, 2013; 310,000 compounds, 0.63% hits; Potency, µM (highest dose often 36.5 µM), for the others: top-dose activity change, negative = inhibition, most hits filed as inhibitors; Vaccinia virus mCherry reporter infection, fluorescence; about a quarter of the inactives have no number; active = well fitted inhibition curve with a large enough effect; inconclusive = small, poorly fitted or top-dose-only effect; inactive = no such curve, though single readings can be large or run the other way; tested in A549 cells; also: nearly all actives have a fitted effect of over 35% in size; inactives centre near -10
Vaccinia Venus: qHTS for Stage-Specific Inhibitors of Vaccinia Orthopoxvirus: Venus Reporter Primary qHTS; Vaccinia virus Venus reporter expression, fluorescence; Potency, µM (highest dose often 36.5 µM), for inactives: at the highest dose activity change, negative = inhibition, hits mostly inhibitors; 330,000 compounds, 0.46% hits; AID 720580, 2013; active means well fitted inhibition curve with a large enough effect; inconclusive means small, poorly fitted or top-dose-only effect; inactive means no such curve, though single readings can be large or run the other way; tested in A549 cells; also: nearly all actives have a fitted effect of over 30% in size; inactives centre near -10
* marks the source's active call; other numbers are inactive results; i = inactive; ? = inconclusive; . = no result given; & = joins results of further samples; [ ] = dose if it differs, or a comment. % is scaled to controls: 0 for no effect and ±100 for the full control effect; potency is read from the fitted curve at half-maximal effect.

SMILES	VACV mCherry inh	Vaccinia Venus
CNC(=O)OCc1snc(-c2ccccc2)c1COC(=O)NC	i	-3.0%
CCCN(CC(=O)c1cc(C)n(C)c1C)S(=O)(=O)c1cccc(C(F)(F)F)c1	.	?
Cc1ccc(S(=O)(=O)N2CCN(C(=O)COC(=O)c3ccccn3)CC2)c(C)c1	-26.8%	-12.1%
CC(C)N(C(=O)CSc1nc2c([nH]1)c(=O)n(C)c(=O)n2C)c1ccccc1	i	-5.6%
CC(C)CNC(=S)NNC(=O)c1ccc2c(c1)OCO2	-18.2%	-6.6%
N#Cc1ncc(N=Cc2ccc(N(CCCl)CCCl)cc2)s1	?	-20.9%
CC1CCCC(NC(=O)c2ccc(COc3ccccc3)o2)C1C (centres undefined)	-12.0%	-5.3%
COc1ccc(S(=O)(=O)Nc2ccc3c(c2)C(=O)N([C@H](C)CO)C[C@H](C)[C@@H](CN(C)C(=O)Nc2ccc(C(F)(F)F)cc2)O3)cc1	i	-21.7%
Cc1ccccc1NC(=O)CCN1CCc2ccccc2C1	-21.2%	-9.6%
COc1ccc(OCC(O)CNC(=O)c2cccs2)cc1 (centres undefined)	0.7%	3.2%
O=C(NCCc1ccccc1)c1ccc2c(c1)N(Cc1ccccc1)C(=O)c1ccccc1S2=O (centres undefined)	-6.3%[7.34 µM]	-2.2%[7.34 µM]
Cc1cc(C)cc(-n2ccnc2SCC(=O)Nc2cccc3ccccc23)c1	-13.6%	-8.1%
O=C(/C=C/Nc1nccs1)C(F)(F)Cl	i	-10.5%
COc1ccccc1OCCCOc1cccc(/C=C2\SC(=O)NC2=O)c1	-7.3%	-18.7%
CCOc1cc(NC(=S)NCc2ccco2)c(OCC)cc1NC(=O)C1CC1	-14.7%	-19.6%
COc1ccc(N2CCN(Cc3nc4c(c(=O)n(C)c(=O)n4C)n3Cc3cccc(C)c3)CC2)cc1	-0.4%	-20.6%
COC(=O)c1ccccc1NC(=O)COCc1cc(-c2cccs2)on1	-12.9%	-6.2%
COc1cccc(C(=O)NNC(=O)C(=O)N2CCCCC2)c1	i	-12.6%
CCOc1ccccc1NC(=O)Nc1cc(C(=O)NCc2ccc(C)cc2)ccc1N1CCCC1	-4.0%	-28.7%
COc1cccc(CNc2ncnc3sc(C(=O)N4CC5CCC4C5)c(C)c23)c1OC (centres undefined)	-22.3%	-15.5%
O=C(N/N=C/C=C\c1ccccc1[N+](=O)[O-])c1cccnc1	-1.0%	-9.1%
COc1ccc2nc(Cl)c(C3CC(c4ccco4)=NN3C(=O)CCC(=O)O)cc2c1 (centres undefined)	i	-13.4%
O=C(COc1ccccc1C(=O)Nc1ccccc1)NC1CCCCC1	i	-15.7%
Cc1cccc(C)c1OCC(=O)Nc1ccc(Cl)cc1C(=O)c1ccccc1	-9.8%	-2.4%
COc1ccc([C@@H]2[C@@H]3C(=O)N(C(C)(C)C)C(=O)[C@@H]3[C@]3(C)C(=O)N(c4cccc(Br)c4)C(=O)N23)cc1	-6.1%	?
CC(NC(=O)COC(=O)C1=COCCO1)C12CC3CC(CC(C3)C1)C2 (centres undefined)	-13.5%	-13.6%
O=C(OC1CC2CC1[C@H]1CCCCN1C2=O)N1CCN(S(=O)(=O)c2ccccc2)CC1 (some centres undefined)	13.0%	2.0%
COc1ccc(NC(=O)CN(C)CC(=O)NC2CCC(C)CC2)cc1 (centres undefined)	-21.5%	-24.3%
COc1ccc(N2CC(C(=O)Nc3nnc(SCC(=O)NCc4ccco4)s3)CC2=O)cc1 (centres undefined)	-0.6%	6.6%
COc1ccc(OCC(=O)N(Cc2ccco2)C2CCS(=O)(=O)C2)cc1 (centres undefined)	-1.0%	-18.2%
CCN(Cc1ccccc1)C(=O)c1cc(-c2ccc(OC)c(OC)c2)nc2ccccc12	-25.9%	-16.3%
N/C(=N\OC(=O)N1CCOCC1)c1ccc(Br)cc1	5.7%	-19.3%
CCN(CC)C(=O)[C@H]1C[C@H](CC(=O)NC/C=C(\C)CCC=C(C)C)C(=O)N2CCc3c([nH]c4ccc(Cl)cc34)[C@]12C	-1.7%	-24.2%
Cc1ccccc1NS(=O)(=O)c1c(C(=O)N2CCCCCC2)c(C)n(C)c1C	-21.0%	-8.4%
NC(=O)C1CCN(C(=O)NC2CC(=O)N(c3ccc4c(c3)OCCO4)C2)CC1 (centres undefined)	-17.6%	-14.1%
Cc1cc(NC(=O)CCC(=O)N(C2CC2)C2(C(=O)NC3CCCC3)CCC(C)CC2)no1 (centres undefined)	-10.4%	-13.3%
CCOCc1nnc(NC(=O)CSc2ccccc2)s1	i	-10.6%
Cc1c(C(=O)N(C)CCOc2ccccc2)oc2c(Cl)cccc12	-22.8%	-13.0%
COc1cc(C(=O)N2CCC2(C)C(=O)O)cc(OC)c1OC (centres undefined)	8.3%	-3.2%
Cc1ccc(CS(=O)(=O)CCC(=O)NCC2CCCO2)cc1 (centres undefined)	-17.7%	-12.7%

Some of the entries so far, with each value named.
N/C(=N\OC(=O)N1CCOCC1)c1ccc(Br)cc1
  VACV mCherry inh = 5.7%
  Vaccinia Venus = -19.3%

CCN(CC)C(=O)[C@H]1C[C@H](CC(=O)NC/C=C(\C)CCC=C(C)C)C(=O)N2CCc3c([nH]c4ccc(Cl)cc34)[C@]12C
  VACV mCherry inh = -1.7%
  Vaccinia Venus = -24.2%

Cc1ccccc1NS(=O)(=O)c1c(C(=O)N2CCCCCC2)c(C)n(C)c1C
  VACV mCherry inh = -21.0%
  Vaccinia Venus = -8.4%

NC(=O)C1CCN(C(=O)NC2CC(=O)N(c3ccc4c(c3)OCCO4)C2)CC1 (centres undefined)
  VACV mCherry inh = -17.6%
  Vaccinia Venus = -14.1%

(listing goes on)
SMILES	VACV mCherry inh	Vaccinia Venus
CCCCOc1ccccc1C(=O)Nc1onc2c1CCCC2	-12.6%	-5.4%
O=C(c1ccccc1)N1CCCCC(Sc2nnnn2-c2ccccc2)C1=O (centres undefined)	-0.6%	-6.9%
CCC(C)n1c(=N)c(C#N)cc2c(=O)n3cccc(C)c3nc21 (centres undefined)	3.8%	2.3%
O=c1cc(-c2ccccc2)nc2nc(-c3ccco3)[nH]n12	.	11.7%
CN(C)C(=O)c1ccc(COc2ccccc2Br)o1	.	-6.0%
COc1cccc(CNC(=O)c2cnn(-c3ncc4c(n3)-c3ccccc3CCC4)c2C)c1OC	i	-18.4%
CCOC(=O)CNC(=O)CSc1nc(C)cc(C)c1C#N	-14.7%	-12.1%
Cc1cc(C(=O)OC(C(=O)Nc2ccc(C)c(Cl)c2)c2ccccc2)c(C)o1 (centres undefined)	-5.5%	-22.5%
CC1=C(C)CC(C(=O)N2CCN(Cc3ccc4c(c3)OCO4)CC2)C(C(=O)O)C1 (centres undefined)	?	-14.0%
OCCN(CCO)c1ccc2ccccc2c1	-19.6%	2.9%
CN(C(=O)Cn1cc(S(=O)(=O)N2CCN(c3ccccc3F)CC2)c2ccccc2c1=O)c1ccc(Cl)cc1	-12.9%	-3.6%
Cc1cc(/C=N\O)c(C)n1-c1ccncc1	.	4.9%
CN(C)Cc1ccc(CNC(=O)COc2ccc3ccccc3c2)cc1	-12.3%	-9.4%
COc1cc(/C=C/C(=O)O)cc(S(=O)(=O)N(C)CCO)c1OC	i	0.0%
Cn1c2ccccc2c(=O)c2cc(C#Cc3cccc(N)c3)ccc21	i	-22.8%
CCN(CC(=O)Nc1ccc(OC)cc1)C(=O)c1ccc(=O)n(Cc2ccccc2)n1	-13.9%	-11.9%
CC(=O)Nc1ccc(S(=O)(=O)NC(C)C(=O)NCC(c2ccco2)N(C)C)cc1 (centres undefined)	-17.0%	-11.0%
O=C(O)c1cccc2c1C(=O)c1ccc(N3CCCCC3)cc1S2(=O)=O	-12.5%	2.1%
CCCN(C#N)c1nc(NCC)nc(NC(C)C)n1	.	?
CCOc1ccc(-n2c(O)c(N=Nc3c(C)n(C)n(-c4ccccc4)c3=O)c(=O)[nH]c2=O)cc1	-7.2%[7.34 µM]	-2.3%[7.34 µM]
Fc1ccc(OCCCCCCN2CCCC2)cc1	-0.3%	-14.1%
CC(C)(C)c1ccc(OCC(=O)N2CCN(C=O)CC2)cc1	.	-17.8%
CN(C)CCNC(=O)c1onc(CSc2nc3ccccc3[nH]2)c1C(=O)NCCN(C)C	-23.2%	-0.6%
CC1CCCCN1C(=O)CSc1nnc(-c2cccs2)o1 (centres undefined)	-1.0%	3.0%
CCOC(=O)C1=C(C)NC2=C(C(=O)CCC2)C1c1ccc(N(C)C)cc1 (centres undefined)	-7.5%	-5.0%
O=C1CC(Sc2ccc(Cl)cc2)C(=O)N1c1ccc2c(c1)OCCO2 (centres undefined)	-4.8%	-0.4%
N#Cc1ccc(Nc2nc(-c3ccccc3)cs2)cc1	-16.6%	-22.1%
COc1ccc(CN(C)CCCn2cnc3c(OCc4ccccc4)ncnc32)cc1	?	-15.5%
O=C(CCS(=O)(=O)c1ccc(Br)s1)Nc1ccccc1Br	?	?
O=C(CSc1nc2nc(-c3cccs3)cc(C(F)(F)F)c2c(=O)[nH]1)Nc1ccc(F)c(F)c1	-24.2%	?

Molecules from the list above that have an NH in an aromatic ring (6):
SMILES	VACV mCherry inh	Vaccinia Venus
CC(C)N(C(=O)CSc1nc2c([nH]1)c(=O)n(C)c(=O)n2C)c1ccccc1	i	-5.6%
CCN(CC)C(=O)[C@H]1C[C@H](CC(=O)NC/C=C(\C)CCC=C(C)C)C(=O)N2CCc3c([nH]c4ccc(Cl)cc34)[C@]12C	-1.7%	-24.2%
O=c1cc(-c2ccccc2)nc2nc(-c3ccco3)[nH]n12	.	11.7%
CCOc1ccc(-n2c(O)c(N=Nc3c(C)n(C)n(-c4ccccc4)c3=O)c(=O)[nH]c2=O)cc1	-7.2%[7.34 µM]	-2.3%[7.34 µM]
CN(C)CCNC(=O)c1onc(CSc2nc3ccccc3[nH]2)c1C(=O)NCCN(C)C	-23.2%	-0.6%
O=C(CSc1nc2nc(-c3cccs3)cc(C(F)(F)F)c2c(=O)[nH]1)Nc1ccc(F)c(F)c1	-24.2%	?

Next compounds follow.
SMILES	VACV mCherry inh	Vaccinia Venus
CCc1nc(N2CCN(C(=O)c3ccco3)CC2)c(C#N)c2c1COC(C)(C)C2	?	-27.3%
Oc1cccc(Nc2nc(N3CCOCC3)nc(N3CCOCC3)n2)c1	?	?
NC(=O)c1cc(Sc2ccccc2)nc2ccccc12	i	-18.2%
CC(=O)Nc1ccc(NC(=O)C2CCN(c3cnccn3)CC2)cc1	-3.2%	4.0%
O=C(OCc1cc(=O)n2nc(-c3cccs3)sc2n1)c1ccccc1	-8.8%	-0.2%
Cc1ccc(N2CC(NC(=O)C(=O)c3c[nH]c4ccccc34)CC2=O)cc1C (centres undefined)	i	-1.3%
CCC(C)c1ccc(NC(=O)COC(=O)C2=COCCO2)cc1 (centres undefined)	-22.2%	-10.2%
O=C(CN1C(=O)NC2(CCCC2)C1=O)Nc1cc(S(=O)(=O)N2CCOCC2)ccc1OCC(F)(F)F	i	-13.1%
Cc1ccc(-c2nnc(OCc3cccnc3)c3ccccc23)cc1	-21.7%	?
CCOc1ccc2nc(S(=O)(=O)NC(=O)C3(C)CCN3C(=O)c3cc(C)n(C)n3)sc2c1 (centres undefined)	1.3%	11.4%
CC(C)(C)NC(=O)CSc1nnc(SCC(=O)NC(C)(C)C)s1	-1.2%	-14.7%
COc1ccc(Cl)cc1N1C(=N)SCC1=O	6.4%	1.4%
COc1ccc(N2CCN(C(=O)COC(=O)c3ccccc3OCc3ccc(F)cc3)CC2)cc1	?	-19.5%
O=C1C(c2ccccc2)C2C=CC(C2)N1O (centres undefined)	-5.2%	-6.0%
CN/C(=C/[N+](=O)[O-])NCCSCc1ccc(CN(C)C)o1	i	-2.9%
COc1ccc(NC(=O)[C@H](Cc2c[nH]c3ccccc23)NC(=O)[C@@H]2Cc3ccccc3CN2)cc1	?	14.1%
Cc1c(Cl)cccc1-n1cnc(=O)c2ccccc21	-14.2%	-5.6%
CCn1nc(C(=O)Nc2cccc3ccccc23)c(Cl)c1Cl	i	0.7%
O=C(CSc1ncn[nH]1)NCCc1ccccc1	-16.5%	-14.6%
O=C(CNS(=O)(=O)c1ccccc1)OCC(=O)c1ccc([N+](=O)[O-])cc1	-9.9%	-10.6%
CCCNC(=O)c1onc(CSc2ccc(Cl)cc2)c1C(=O)NC(C)C	i	-10.9%
CC(=O)N1CCN(CC(=O)Nc2ccc3c(c2)CCC3)CC1	i	-9.1%
COc1ccccc1N1CCN(C(=O)c2sc3nc4n(c(=O)c3c2C)CCC4)CC1	-1.8%	-6.1%&-4.6%
Cc1cc2ccccc2n1CCC(=O)O	-3.6%	-0.7%
CC(C)C[C@@H]1COc2cccc(N3CCC[C@@H]3CO)c2S(=O)(=O)N1	i	2.4%
Nc1nnnn1CC(=O)N/N=C/C=C/c1ccccc1	i[7.34 µM]	-3.4%[7.34 µM]
Cn1c(=O)c2c(nc(-c3ccccc3)n2C)n(Cc2ccccc2)c1=O	i	-7.9%
CC(C)(C)c1ccc(-c2noc(CCC(=O)Nc3cccnc3)n2)cc1	-16.5%	-16.8%
Cc1nnc(SCC(=O)Nc2cc(C(C)(C)C)nn2-c2ccccc2)s1	-10.6%	-11.4%
COc1ccc(S(=O)(=O)NCC(c2cccs2)N2CCc3ccccc3C2)cc1 (centres undefined)	-0.6%	-17.8%
CCN(CC(=O)NCc1ccc(Cl)cc1)C(=O)CN1C(=O)NC(C)(c2ccccc2)C1=O (centres undefined)	-15.9%	-15.3%
O=S(=O)(NCC1CCCO1)c1ccc(S(=O)(=O)N(Cc2ccccc2F)C2CCCCC2)cc1 (centres undefined)	-11.1%	-16.4%
NC(=O)CSc1nnc(SCc2ccc(F)cc2)s1	-0.2%	-3.5%
